Screening results as filed in PubChem BioAssay.
HIV Env fusion = blocks HIV Env-driven cell-cell fusion; HeLa-JRFL Env/CEM21 cell fusion, luciferase; inhibition, % at 12.3 µM; 1.1% of 360,000 active;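 active = mean replicate inhibition score of at least 50 and every replicate individually at or above 50; inconclusive = only one of the two criteria met; inactive = mean below 50 and not all replicates reaching 50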;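 also: 0% = plate neutral controls and 100% = maraviroc near 300 nM; one replicate is shown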
CSC inhib = cancer stem cell inhibition; cancer stem cell-like cells viability, luminescence; inhibition, % at 7.5 µM; 1.1% of 300,000 active;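 active = mean at 75% or more and at least half the replicates too; inconclusive = mean and replicates disagree; tested in HMLE shEcad cells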;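 also: 0% = median of negative and 100% = median of positive control wells; the first replicate is given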
UUG fidelity = modulators of start codon recognition fidelity in yeast | S. cerevisiae UUG-firefly luciferase reporter, luminescence/redox ratio | activity score, % at 18.7 µM | 0.13% of 350,000 active | AID 602363;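 active = replicate mean at a twofold rise or more, about +100% in these data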;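 also: firefly luciferase made from a UUG start codon reports start codon fidelity; reporter light over untreated wells divided by growth signal over untreated wells; some hits fall short of that in this replicate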
eIF4H FP inh = inhibitors of RNA binding by human eIF4H. inhibition, % at 35 µM. eIF4H fluorescence polarization binding assay. 0.94% of 290,000 active. Q15056;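 active = 50% or more with normal probe brightness, or confirmed in later tests; inconclusive = above 50% with abnormal brightness, or retests that disagree; inactive = below 50% or failed in later tests; about a fifth of its hits are not listed in these tables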;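 also: calls also rest on retests at 20 µM and on dose response follow-up; 0% = protein and probe with vehicle and 100% = probe without protein; strong numbers were not always called active; many hits fall short of the cut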
PABP FP inh = blocks human PABP binding to poly(A) RNA | 1% of 290,000 active | AID 2014 | fluorescence polarization | inhibition, % at 35 µM;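 active = 50% or more with normal probe brightness, or confirmed in later tests; inconclusive = above 50% with abnormal brightness, or retests that disagree; inactive = below 50% or failed in later tests; about a fifth of its hits are not listed in these tables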;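 also: calls also rest on retests at 20 µM and on dose response follow-up; controls were probe without protein and protein plus probe with vehicle; some compounds called inactive have numbers as strong as hits; many hits fall short of the cut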
Target sequence (P11940 whole entry, looked up): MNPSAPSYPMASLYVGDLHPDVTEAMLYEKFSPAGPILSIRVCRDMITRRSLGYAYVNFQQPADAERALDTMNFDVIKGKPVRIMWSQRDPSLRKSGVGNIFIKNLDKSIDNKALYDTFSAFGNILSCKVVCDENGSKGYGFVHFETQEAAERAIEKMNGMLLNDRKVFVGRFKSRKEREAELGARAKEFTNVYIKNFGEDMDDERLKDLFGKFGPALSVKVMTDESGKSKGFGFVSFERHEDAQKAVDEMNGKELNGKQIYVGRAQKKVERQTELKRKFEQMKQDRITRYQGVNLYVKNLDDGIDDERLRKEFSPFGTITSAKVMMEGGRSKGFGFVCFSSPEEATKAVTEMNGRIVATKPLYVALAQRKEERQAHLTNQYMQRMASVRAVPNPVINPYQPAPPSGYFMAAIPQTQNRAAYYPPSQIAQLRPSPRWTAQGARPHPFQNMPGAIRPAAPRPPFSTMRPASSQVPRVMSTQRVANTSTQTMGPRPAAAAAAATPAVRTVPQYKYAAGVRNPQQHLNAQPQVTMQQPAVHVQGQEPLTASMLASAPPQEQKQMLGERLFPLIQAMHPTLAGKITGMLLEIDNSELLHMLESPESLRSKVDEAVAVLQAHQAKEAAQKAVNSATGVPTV
Rce1 inhib = blocks yeast Ras-converting enzyme; Q03530; yeast membranes, quenched prenylated peptide cleavage fluorescence; calls only; 0.27% of 290,000 active; AID 2563;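 active = fall in fluorescence gain of 50% or more versus controls, with final raw signal at or below 3038400; inconclusive = same 50% fall but final raw signal above 3038400; inactive = fall in fluorescence gain under 50%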;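 also: plate controls were neutral control wells for no effect and wells lacking membranes for full effect; tested at 10 µM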
Target sequence (Q03530 whole entry, looked up): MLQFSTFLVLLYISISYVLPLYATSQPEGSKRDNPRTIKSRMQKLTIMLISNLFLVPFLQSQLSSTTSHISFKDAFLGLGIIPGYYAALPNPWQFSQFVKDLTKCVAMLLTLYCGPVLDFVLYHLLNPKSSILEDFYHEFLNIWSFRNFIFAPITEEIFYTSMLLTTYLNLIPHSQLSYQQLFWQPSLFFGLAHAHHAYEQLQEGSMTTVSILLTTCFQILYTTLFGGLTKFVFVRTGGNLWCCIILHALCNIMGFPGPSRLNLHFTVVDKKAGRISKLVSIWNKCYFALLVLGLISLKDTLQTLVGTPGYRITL
MT1-MMP act inh = MT1-MMP (human) activation inhibition. P50281. HT1080 RFP-PRO-GFP cells, GFP/RFP ratio fluorescence, overnight; percent of plate control window, DMSO zero. GFP/RFP ratio change, % at 20 µM. 0.061% of 360,000 active. AID 651647;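 active = GFP/RFP ratio change of at least 30% with cell ATP level not reduced by more than half and red fluorescence within 50% of control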; also: strong numbers were not always called active
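Assay system: RFP-PRO-GFP reporter HT1080 cells; read-out basis: GFP/RFP fluorescence ratio; benchmarks: DMSO wells and RFP-L50D-GFP cells; doses: 20 µM single dose, 1% DMSO; schedule: overnight cell settling, then overnight compound exposure, 37 °C, 5% CO2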
MT1-MMP act inh RFP = recorded beside MT1-MMP act inh, whose call it bears; RFP signal change, %; measured here: RFP expression control read;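 0 = vehicle wells; hits needed this value within 50% of zero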
Active calls of the source: *; i = inactive; ? = inconclusive; . = not tested or not shown; & = joins results of further samples.

1. Cc1cc(C(=O)OCC(=O)NC(C)C)c2ccccc2n1
2. C/C(Cl)=C\CNC(C)c1ccccc1 (stereo unspecified)
3. O=C(COC(=O)COc1ccc(Cl)cc1Cl)NC1CCCCCC1
4. CN(C(=O)CSCC(=O)Nc1ccc(Cl)cc1)C1CCCCC1
5. COc1ccc2cc(C3(C)NC(=O)N(CC(=O)NCC(F)(F)F)C3=O)ccc2c1 (stereo unspecified)
6. CN(c1ccc(F)cc1)S(=O)(=O)c1ccc(Cl)c(C(=O)OCC(=O)NCc2ccco2)c1
7. CCCc1cc(C(=O)Nc2cc(OC)ccc2OC)cs1
8. Cc1ccc(N(CC(=O)NCc2ccc(F)cc2)S(=O)(=O)c2c(C)nn(C)c2C)cc1
9. CN(Cc1nc(-c2ccccc2)no1)C(=O)c1ccco1
10. O=C(NCCc1cccc(F)c1)C1CCN(S(=O)(=O)c2ccccc2)CC1
compound no. | 1 | 2 | 3 | 4 | 5 | 6 | 7 | 8 | 9 | 10
HIV Env fusion | -5 | . | -10 | 21 | -13 | 3 | -2 | 8 | -10 | 11
eIF4H FP inh | -2 | -6 | . | . | 2 | 22 | 29 | -6 | -4 | -8
Rce1 inhib | i | i | . | . | i | i | i | i | i | i
UUG fidelity | -15 | -10 | -19 | -6 | -30 | -13 | -9 | -14 | -1 | 3
PABP FP inh | 6 | 15 | . | . | 7 | -1 | 9 | -2 | 4 | 10
MT1-MMP act inh RFP | -7 | -1 | 6 | -2 | -1 | -2 | -1 | -3 | -1 | 1
MT1-MMP act inh | -4 | -10 | 2 | 5 | -1 | -2 | -5 | -1 | -2 | 0
CSC inhib | 15 | 3 | . | -1 | -12 | -4 | -4 | -5 | -17 | -5

11. S=c1oc(-c2ccncc2)nn1CCc1ccncc1
12. CC(=O)Nc1cc(NC(C)=O)c(N=Nc2ccccc2)cc1C
13. CC(C)Cc1ccc(/C=C/C(=O)N2CCCCC2)cc1
14. CCc1ccc(OCCCC(=O)Nc2ccc(S(=O)(=O)Nc3cc(C)nc(C)n3)cc2)cc1
15. O=C(NN1C(=O)/C(=C/c2cccnc2)SC1=S)C(c1ccccc1)c1ccccc1
16. O=C(NC(=S)NC1CCCc2ccccc21)c1ccc(F)cc1 (stereo unspecified)
17. COc1ccc(N2CCN(C(=O)c3ccc(NC(=O)C4=CSCCO4)cc3)CC2)cc1
18. O=C(/C=C/[C@H]1O[C@@H](n2cnc3c(NC(=O)c4ccccc4)ncnc32)[C@H](O)[C@@H]1O)NCCc1ccc(F)cc1
19. CC(c1ccco1)N(C(=O)C12CC3CC(CC(C)(C3)C1)C2)c1ccccn1 (stereo unspecified)
20. COC(=O)COc1ccc(C(=O)OC)cc1
compound no. | 11 | 12 | 13 | 14 | 15 | 16 | 17 | 18 | 19 | 20
HIV Env fusion | -66 | -9 | -23 | 1 | . | -20 | . | 18 | . | 8
eIF4H FP inh | -3 | 0 | 20 | -1 | -14 | 2 | 1 | . | -2 | 1
Rce1 inhib | i | i | i | i | i | i | i | . | i | i
UUG fidelity | -13 | . | . | -5 | . | -2 | -11 | -4 | -12 | -25
PABP FP inh | 6 | 0 | -5 | 12 | 0 | 5 | 1 | . | 7 | -4
MT1-MMP act inh RFP | -7 | 0 | -3 | -9 | 6 | 1 | 1 | -3 | -3 | 5
MT1-MMP act inh | 0 | 7 | -2 | -1 | 7 | 1 | 0 | -1 | -2 | -3
CSC inhib | 2 | 12 | 11 | -7 | 13 | 27 | -7 | . | -6 | -20

21. Cc1c(C(=O)NC(C)C)oc2c1-c1[nH]ncc1CC2
22. Cc1ccc(S(=O)(=O)N(C)C[C@@H]2Oc3c(NC(=O)C4CC4)cccc3C(=O)N([C@@H](C)CO)C[C@@H]2C)cc1
23. CCOc1ccc(NC(=O)Nc2cc(C)ccc2F)cc1
24. Nc1nc(NC(=O)/C=C/c2ccc(F)cc2)nn1-c1ccccc1
25. O=C(NCc1ccccc1)c1ccc(CS(=O)Cc2cccc(Cl)c2)o1 (stereo unspecified)
26. CCOC(=O)c1sc(NC(=O)C(C)C)c(C#N)c1C
27. CC1(C)NC(=O)N(CC(=O)O)C1=O
28. O=C(N/N=C/c1cc([N+](=O)[O-])ccc1O)c1cc(-c2ccccc2)nc2ccccc12
29. CCOc1ccc(CCNC(=O)COC(=O)Cn2nc(C)c([N+](=O)[O-])c2C)cc1OCC
30. O=C1CC(=O)N(CCc2ccc(F)cc2)C(=O)N1
compound no. | 21 | 22 | 23 | 24 | 25 | 26 | 27 | 28 | 29 | 30
HIV Env fusion | . | 1 | -142 | -2 | 24 | -7 | -59 | 13 | . | .
eIF4H FP inh | 4 | . | 1 | 8 | . | 7 | -4 | 8 | . | ?
Rce1 inhib | i | . | i | i | . | . | i | i | i | i
UUG fidelity | 15 | 2&-4 | -26 | . | -7 | . | -22 | . | 5 | -2
PABP FP inh | 6 | . | -2 | 3 | . | 3 | 4 | 7 | . | ?
MT1-MMP act inh RFP | 7 | 2 | -8 | 1 | 2 | 1 | 1 | -4 | 2 | 5
MT1-MMP act inh | 5 | 0 | -1 | 6 | 3 | 2 | -5 | -1 | -2 | -16
CSC inhib | -8 | -25 | 43 | 5 | . | 3 | 5 | 39 | -5 | -5

31. CCOc1ccc(C(=O)Nc2ccc(-c3nc4ccccc4[nH]3)cc2)cc1[N+](=O)[O-]
32. CCn1cnc2cc([N+](=O)[O-])ccc21
33. CCc1nnc(NC(=O)CC(C)c2ccccc2)s1 (stereo unspecified)
34. COCCCNC(=O)CCCn1c(=O)c2ccccc2n(CC(=O)Nc2c(C)cc(C)cc2C)c1=O
35. Cc1ccc(C(=O)OCC(=O)Nc2ccccc2Sc2ccccc2)cc1C
36. Nc1nc(SCC(=O)NNc2c(Cl)cc(Cl)cc2Cl)n[nH]1
37. COc1ccc([N+](=O)[O-])cc1NC(=O)C(C)OC(=O)c1cccnc1Cl (stereo unspecified)
38. COc1ccc(OCC(=O)N2CCN(C(=O)c3ccc([N+](=O)[O-])cc3)CC2)cc1
39. CC1CCN(C(=O)COC(=O)c2cc(Cl)c3c(c2)OCO3)CC1
40. C=CC(=O)NCC1OCCc2ccccc21 (stereo unspecified)
compound no. | 31 | 32 | 33 | 34 | 35 | 36 | 37 | 38 | 39 | 40
HIV Env fusion | 7 | -3 | -10 | . | 37 | -2 | 5 | -15 | -37 | -3
eIF4H FP inh | -7 | -4 | 3 | 3 | -4 | 3 | 10 | 10 | . | 0
Rce1 inhib | i | i | i | i | i | i | i | i | . | i
UUG fidelity | . | -23 | 1 | . | -9 | . | . | . | -16 | 4
PABP FP inh | 4 | 1 | 6 | -10 | 0 | -10 | -4 | 4 | . | -1
MT1-MMP act inh RFP | 4 | 2 | -1 | 3 | 3 | 6 | 3 | 6 | 0 | 5
MT1-MMP act inh | 6 | -2 | -8 | -2 | -1 | -1 | -3 | 3 | 3 | 4
CSC inhib | -7 | -4 | 0 | 13 | 0 | -3 | -2 | -5 | . | -9

4 records drawn at random from those above:
39. CC1CCN(C(=O)COC(=O)c2cc(Cl)c3c(c2)OCO3)CC1
40. C=CC(=O)NCC1OCCc2ccccc21 (stereo unspecified)
36. Nc1nc(SCC(=O)NNc2c(Cl)cc(Cl)cc2Cl)n[nH]1
34. COCCCNC(=O)CCCn1c(=O)c2ccccc2n(CC(=O)Nc2c(C)cc(C)cc2C)c1=O
compound no. | 39 | 40 | 36 | 34
HIV Env fusion | -37 | -3 | -2 | .
eIF4H FP inh | . | 0 | 3 | 3
Rce1 inhib | . | i | i | i
UUG fidelity | -16 | 4 | . | .
PABP FP inh | . | -1 | -10 | -10
MT1-MMP act inh RFP | 0 | 5 | 6 | 3
MT1-MMP act inh | 3 | 4 | -1 | -2
CSC inhib | . | -9 | -3 | 13

(next part)
41. CN1C(=O)/C(=C/c2ccccc2OCc2ccccc2)NC1=S
42. CCCCCC(=O)Nc1nc(C)c(-c2csc(Nc3ccccc3OCC)n2)s1
43. Cc1cccc(CC(=O)NCCn2c(C)cc3ccccc32)c1
44. O=C(CN(Cc1ccco1)C(=O)CCC(=O)Nc1nccs1)NCc1ccccc1
45. CCC(=O)Nc1ccc(Cl)c(NC(=O)c2c(OC)cccc2OC)c1
46. CCC(Oc1ccccc1)C(=O)Nc1ccccc1N1CCCCC1 (stereo unspecified)
47. CC(=O)N1CCOc2ccc(S(=O)(=O)NC(C)c3ccccc3)cc21 (stereo unspecified)
48. COc1cccc(/C=N/NC(=O)CNC(=O)c2ccc3c(c2)OCCO3)c1O
49. CCOc1ccc(CCNC(=O)c2cc(-c3ccccc3)c(N3CCOCC3)s2)cc1OCC
50. COc1cc(/C=C2\SC(=S)N(C(C(=O)O)c3ccccc3)C2=O)ccc1O (stereo unspecified)
compound no. | 41 | 42 | 43 | 44 | 45 | 46 | 47 | 48 | 49 | 50
HIV Env fusion | -6 | -60 | . | . | -2 | . | 6 | . | 14 | -2
eIF4H FP inh | -4 | -1 | 22 | 0 | 0 | -5 | -6 | -13 | -7 | 42
Rce1 inhib | i | i | i | i | i | i | i | i | i | i
UUG fidelity | -4 | -11 | 9 | -17 | . | -7 | -21 | -3 | 3 | -3
PABP FP inh | -18 | 0 | 2 | 1 | 4 | -8 | -5 | 2 | 3 | 3
MT1-MMP act inh RFP | -7 | 9 | 8 | 4 | 5 | -4 | -6 | 5 | -16 | 60
MT1-MMP act inh | -6 | 10 | 14 | 0 | 6 | -4 | -2 | 3 | -5 | -37
CSC inhib | -1 | 50 | 1 | -2 | -5 | 24 | 0 | 10 | 7 | -3

51. Cc1ccc(NC(=O)COC(=O)CC2CCCC2)cc1Cl
52. O=C(Nc1nc2n(n1)C(c1ccccc1)CC(c1ccc(Cl)cc1)N2)c1ccco1 (stereo unspecified)
53. O=[N+]([O-])c1ccc(NN=Cc2cccc(O)c2)nc1
54. COc1ccc(C(=O)Nc2ccc(OCC(F)(F)C(F)F)c(C(F)(F)F)c2)cc1OC
55. CC(=O)N(Cc1ccco1)Cc1cc2cccc(C)c2n2nnnc12
56. CCOC(=O)C1=NN(C(=O)Cc2ccccc2)C(O)(c2ccc(Cl)cc2)C1 (stereo unspecified)
57. Cc1ccc(COc2ccsc2C(=O)O)cc1
58. COc1cc(/C=N/NC(=O)c2cc(C)oc2C)cc(OC)c1OC
59. CCOC(=O)c1[nH]c2ccc(OCC)cc2c1NC(=O)CN1CCC2(CC1)OCCO2
60. COc1cc(/C=N/NC(=O)CSc2ccccn2)ccc1O
61. Cc1cc(Cl)ccc1NC(=O)CSc1nnc(-c2ccncc2)n1Cc1ccco1
62. C=CCc1cccc2ccc(=O)oc12
63. O=c1cc(O)c2c(=O)[nH]c(=O)n(-c3ccccc3)c2[nH]1
compound no. | 51 | 52 | 53 | 54 | 55 | 56 | 57 | 58 | 59 | 60 | 61 | 62 | 63
HIV Env fusion | . | . | -108 | . | . | -21 | -2 | 0 | . | -6 | -86 | . | .
eIF4H FP inh | 11 | -1 | . | -3 | -4 | -7 | 4 | 4 | -2 | -6 | -1 | -10 | 2
Rce1 inhib | i | i | . | i | i | i | . | i | i | i | . | i | i
UUG fidelity | . | -2 | -20 | -21 | . | 4 | . | . | -15 | . | -23 | . | -6
PABP FP inh | 27 | -8 | . | -6 | -13 | -10 | -1 | -9 | 3 | -2 | 4 | -5 | -1
MT1-MMP act inh RFP | -4 | 1 | -11 | -8 | . | 1 | 5 | -1 | -2 | 0 | -1 | 5 | 1
MT1-MMP act inh | -8 | 3 | -10 | 8 | . | 0 | 2 | 3 | 2 | 2 | -2 | -5 | -2
CSC inhib | -12 | -5 | . | 92* | 10 | -4 | . | -22 | -17 | -15 | 9 | 8 | 6
